Screening data (PubChem)
TRPML1 blocker: human mucolipin-1 channel inhibition | Q9GZU1 | TRPML1-inducible cells, Ca2+ dye fluorescence, FDSS; active compounds read low; inhibition of EC80 agonist-evoked calcium signal | activity change, negative = inhibition, % (test concentration not listed) | 390,000 compounds, 0.02% hits | AID 624415; in the data active means activity change below about -50%; inconclusive means about -30% to -50%; inactive means above about -30%;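 further: stimulus is agonist 54-4 at its EC80 concentration; on the % scale 0 is the no-effect control and ±100 the full control effect; compound concentration not given in the record; the text of the record puts the active cut at -80%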
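Calcium fluorescence in TRPML1-DL cells induced overnight with Tet: a 110 s read after compound pin addition, then a 110 s antagonist read after challenge with 54-4 at 4 uM final (EC80).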
TRPV1 potentiator: human TRPV1 potentiation. Q8NER1. TRPV1-expressing cells, Fluo-8 calcium influx, capsaicin EC20 potentiation; host cell line not named in the record; control for the full effect not named in the record. potentiation, % at 8.33 µM. 320,000 compounds, 0.02% hits. AID 540277; active means potentiation above 80%; inconclusive means 30% to 80%; inactive means below 30%; further: 0% is about no effect
Target sequence (Q8NER1 whole entry, looked up): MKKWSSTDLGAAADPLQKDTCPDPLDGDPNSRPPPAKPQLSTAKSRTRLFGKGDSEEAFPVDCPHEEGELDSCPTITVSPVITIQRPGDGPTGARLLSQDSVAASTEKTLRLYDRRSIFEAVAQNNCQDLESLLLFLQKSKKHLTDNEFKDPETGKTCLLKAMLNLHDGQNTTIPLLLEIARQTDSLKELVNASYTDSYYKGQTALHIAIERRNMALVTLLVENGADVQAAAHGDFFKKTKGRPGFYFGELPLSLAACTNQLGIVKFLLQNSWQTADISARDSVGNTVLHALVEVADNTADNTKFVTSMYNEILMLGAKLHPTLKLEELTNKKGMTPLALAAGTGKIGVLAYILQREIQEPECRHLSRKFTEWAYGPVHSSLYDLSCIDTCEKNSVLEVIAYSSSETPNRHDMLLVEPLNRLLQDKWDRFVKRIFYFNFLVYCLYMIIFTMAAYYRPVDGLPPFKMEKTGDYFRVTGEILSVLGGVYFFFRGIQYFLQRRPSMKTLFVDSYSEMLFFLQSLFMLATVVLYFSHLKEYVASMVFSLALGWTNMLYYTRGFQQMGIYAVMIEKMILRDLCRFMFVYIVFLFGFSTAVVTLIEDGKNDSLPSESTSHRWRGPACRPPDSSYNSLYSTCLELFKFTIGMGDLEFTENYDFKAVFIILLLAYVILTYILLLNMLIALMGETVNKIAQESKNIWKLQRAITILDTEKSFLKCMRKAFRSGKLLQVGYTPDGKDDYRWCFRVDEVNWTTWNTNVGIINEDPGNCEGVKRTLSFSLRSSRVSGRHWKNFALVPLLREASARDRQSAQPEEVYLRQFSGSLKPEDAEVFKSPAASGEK
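Fluo-8 calcium influx in TRPV1-expressing cells, kinetic read (ex 480/em 520 nm). Compound added and read 3 min for agonist activity, followed by capsaicin at EC20 final and 2 min further read for enhancement.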
TRPML1 agonist: activates the human TRPML1 channel | TRPML1-expressing cells, Ca2+ dye fluorescence, FDSS; host cell line not named in the record; reference of the full effect not given here | activation, % (test concentration not listed) | 410,000 compounds, 0.12% hits; in the data active = activation above about 50%; inconclusive = about 30% to 50%; inactive = below about 30%; further: 0% is about no effect; the text of the record puts the active cut at 80%
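Tetracycline-induced TRPML1-DL cells are seeded and incubated overnight before loading with a no-wash Ca2+ dye and quencher. Agonist activity is taken from the 110 s fluorescence read following compound pin-transfer on an FDSS, before EC80 54-4 challenge.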
Sfp inh: blocks B. subtilis Sfp PPTase activity | Q9F4F7 | Biochemical Sfp PPTase activity, qHTS | Potency, µM, for the others: max response, negative = inhibition, hits mostly inhibitors | 310,000 compounds, 3.5% hits; active means well fitted inhibition curve with a large enough effect; inconclusive means small, poorly fitted or top-dose-only effect, or another doubt; inactive means no such curve, though single readings can be large or run the other way;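 further: the enzyme is Sfp with the accession as filed and its product quenches rhodamine fluorescence; potency means the concentration at half of the fitted maximal effect; 0% = enzyme reaction without inhibitor and -100% = no enzyme wells; top concentration of the series not given in the record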
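Reaction rates are the 30-min fluorescence difference (ex 525, em 598 nm) in wells containing 15 nM Sfp, 5 uM rhodamine-CoA and 12.5 uM BHQ-2-YbbR at pH 7.6 with 10 mM MgCl2.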
PINK1 expr mod: PINK1 expression modulation | PINK1 immunofluorescence, high-content cytometry, 24 h | Potency, µM (titrated, usually from 76.6 µM), for the others: top-dose activation (PINK1 increase), usual class: activators | 410,000 compounds, 0.2% hits | AID 624263; active = well fitted activation curve with a large enough effect; inconclusive = small, poorly fitted or top-dose-only effect; inactive = flat fitted curve, though single readings scatter; cell line not stated here;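 further: potency means the concentration at half of the fitted maximal effect; % of control where 0% means no effect; nearly all actives have a fitted effect of over 65% in size; a mitochondrial uncoupler was the plate control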
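Decision-based qHTS: stable cells, 24 h exposure to five compound concentrations, CCCP as control. Fixed cells stained for PINK1 plus nuclear, mitochondrial and cell markers, cytometer read.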
ClpP mod: qHTS Assay for Activators of ClpP; AID 651965, 2013; purified B. subtilis ClpP, FRET peptide cleavage, 20 min; Potency, µM (titrated, usually from 57.5 µM), for the others: top-dose activity change, negative = active; 340,000 compounds, 1.9% hits; active = well fitted falling curve with a large enough effect; inconclusive = small, poorly fitted or top-dose-only effect; inactive = no such curve, though single readings can be large or run the other way; further: potency means the concentration at half of the fitted maximal effect; the source files actives as falling curves though it sought activators and does not explain the sign; nearly all actives have a fitted effect of over 65% in size; many hits overshoot -100%
Target sequence (P80244 whole entry, looked up): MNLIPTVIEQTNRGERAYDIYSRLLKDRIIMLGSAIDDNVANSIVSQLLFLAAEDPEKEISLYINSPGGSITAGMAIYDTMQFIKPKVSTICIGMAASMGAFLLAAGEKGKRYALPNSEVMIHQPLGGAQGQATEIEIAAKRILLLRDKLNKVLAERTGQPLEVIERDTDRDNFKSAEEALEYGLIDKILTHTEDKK
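Purified B. subtilis ClpP, 10 microg/mL final in Tris/HCl pH8 with KCl, BSA, glycerol and Tween-20, cleaved an Abz/nitrotyrosine-quenched decapeptide. Fluorescence (ex 320, em 430) was read at 0 and 20 min at room temperature. Delta was normalized to 5.8 microM ADEP and DMSO/no-enzyme controls.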
Menin MLL FP FL: inhibitors of human menin-MLL interaction, wild-type MLL peptide; Fluorescence polarization, fluorescein-MLL peptide displacement from menin; FP activity change, % at 61.4 µM; 290,000 tested, under 10 active; AID 1766; inconclusive = falling polarisation curve, or a change in total fluorescence; inactive = total fluorescence flat and polarisation flat or rising; no compound was filed as active; the % refers to the polarisation; negative = inhibition;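 further: % of control where 0% means no effect; inhibitors lower the polarisation; unlabelled MLL peptide was the positive control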
The depositor's hits bear a star; ? = inconclusive; · = no result given; [ ] = remark or other dose.

SMILES	TRPML1 blocker	TRPV1 potentiator	TRPML1 agonist	Sfp inh	PINK1 expr mod	ClpP mod	Menin MLL FP FL
CCc1ccc(CNC(=O)c2sc3ncnc(N(C)C4CCCCC4)c3c2C)cc1	-19	·	3.8	·	-0.3%	?	·
O=C(Nc1ccccc1[N+](=O)[O-])OCC=Cc1ccccc1	-10	·	2.0	·	1.3%	1.7%	·
COc1ccc(C(O)c2nc(-c3cccc(CO)c3)cs2)cc1 (configuration not stated)	·	·	-0.8	·	0.9%	-1.8%	·
O=C(COC(=O)C1CCCCC1)Nc1cccc(Br)c1	5	-6	-0.9	·	4.4%	1.3%	·
O=C(Nc1ccc(OCc2ccccc2)cc1)c1ccccc1	1	5	1.2	11%	-1.0%	·	2.8
COc1ccc(-c2nc3nc(N)nn3cc2C)cc1F	1	7	0.9	7%	-0.6%	-10%	1.0
COc1cc(/C=C2/C(C)=C(C#N)c3nc(N)c(C#N)c(C)c32)ccc1OCC(=O)O	28	4	-0.3	?	3.3%	·	?
Cc1cc(NC(=S)Nc2ccccc2)ccc1Br	13	-3	-0.6	1%	-4.5%[38.3 µM]	0.9%	-0.9
CCOC(=O)/C(C#N)=C1\C(=O)N(Cc2ccccc2)c2ccccc21	17	2	5.8	35µM*	-0.7%	·	6.0
COc1ccc(CCc2nnc(N)s2)cc1OC	-9	-8	-0.2	1%	0.3%	·	3.9
CC(=O)Nc1ccc2c3c(cccc13)CC2	-20	·	-0.4	·	-2.7%	-2.4%	·
CCOc1ccccc1NC(c1nnc(-c2ccccc2)o1)c1ccc(F)cc1Cl (configuration not stated)	-3	·	2.4	·	1.8%	-11%	·
Cc1cc(C(=O)NCc2ccc(S(N)(=O)=O)cc2)c(C)o1	64	-6	-0.1	3%	4.1%[38.3 µM]	-0.8%	?
O=S(=O)(Nc1cc(S(=O)(=O)N2CCOCC2)ccc1NCC1CCCO1)c1ccccc1 (configuration not stated)	-18	-5	0.1	·	-0.4%	-1.9%	·
Cc1cccc(NC(=S)NCc2ccc3c(c2)cc(C)n3C)c1C	-1	28	2.1	-13%	4.4%	-2.8%	0.0
O=C(Nc1cccc(S(=O)(=O)NC2=NCCC2)c1)c1c(F)cccc1Cl	-15	-11	0.1	·	-1.3%	-10%	·
CSC1=NC2C(N1)N(C)C(=O)N2C (configuration not stated)	1	7	-0.7	-20%	1.0%	-1.4%	-0.7
CC(=O)C1CCC2C3CCC4CC(=O)CCC4(C)C3C=CC12C (configuration not stated)	3	·	-0.9	·	-0.7%	·	·
COc1ccc(N2CCN(Cc3cc(=O)oc4ccc(OC)cc34)CC2)cc1	3	·	-0.4	·	-1.0%	0.7%	·
COC(=O)[C@]1(C)N[C@H](CN(C)S(=O)(=O)c2ccc(OC(F)(F)F)cc2)[C@@H]2C(=O)N(C)C(=O)[C@@H]21	5	·	-0.7	·	2.0%	0.7%	·
CN(C)C1=NCCN1CCC1CCCCC1	-9	-14	-0.3	·	0.7%	1.4%	·
CC(=O)N[C@@H](Cc1ccc(OC(F)(F)F)cc1)C(=O)O	-9	?	1.2	2%	2.4%	2.2%	2.1
Cc1ccc(N2C(=O)C3C4C=CC(CNC(=S)N5CCN(c6ccccc6)CC5)(O4)C3C2=O)cc1 (configuration not stated)	19	2	2.6	13µM*	6.2%	1.0%	1.0
O=C(NNC(=O)c1c(F)cccc1F)c1ccccc1OC(F)(F)F	-5	-3	-0.3	26%	-1.8%	-2.3%	-0.9
CCn1c(CC(=O)Nc2ccc(OC)cc2)nnc1SCC(=O)N1CCOCC1	-1	7	0.1	7%	0.0%	?	-1.1

For reference, some entries already given.
SMILES	TRPML1 blocker	TRPV1 potentiator	TRPML1 agonist	Sfp inh	PINK1 expr mod	ClpP mod	Menin MLL FP FL
CN(C)C1=NCCN1CCC1CCCCC1	-9	-14	-0.3	·	0.7%	1.4%	·
CC(=O)N[C@@H](Cc1ccc(OC(F)(F)F)cc1)C(=O)O	-9	?	1.2	2%	2.4%	2.2%	2.1
Cc1ccc(N2C(=O)C3C4C=CC(CNC(=S)N5CCN(c6ccccc6)CC5)(O4)C3C2=O)cc1 (configuration not stated)	19	2	2.6	13µM*	6.2%	1.0%	1.0
O=C(NNC(=O)c1c(F)cccc1F)c1ccccc1OC(F)(F)F	-5	-3	-0.3	26%	-1.8%	-2.3%	-0.9
CCn1c(CC(=O)Nc2ccc(OC)cc2)nnc1SCC(=O)N1CCOCC1	-1	7	0.1	7%	0.0%	?	-1.1

Sfp inh: hit marks shown above
Compound,TRPML1 blocker,Sfp inh,PINK1 expr mod,Menin MLL FP FL
CCOC(=O)/C(C#N)=C1\C(=O)N(Cc2ccccc2)c2ccccc21,17,35µM*,-0.7%,6.0
Cc1ccc(N2C(=O)C3C4C=CC(CNC(=S)N5CCN(c6ccccc6)CC5)(O4)C3C2=O)cc1 (configuration not stated),19,13µM*,6.2%,1.0

Later entries:
SMILES	TRPML1 blocker	TRPV1 potentiator	TRPML1 agonist	Sfp inh	PINK1 expr mod	ClpP mod	Menin MLL FP FL
O=C(COc1ccccc1F)Nc1ccc2nc(SCC(=O)N3CCCC3)sc2c1	16	·	2.2	·	-0.6%	-1.8%	·
O=C(Cc1cccs1)NNC(=O)c1ccc(F)cc1	20	-8	0.1	4%	2.3%	-1.5%	6.8
COc1cc(-c2nnc(SCC(=O)OC3CCCCC3)o2)cc(OC)c1OC	4	-17	0.0	-2%	-3.3%[38.3 µM]	-3.4%	1.3
Cc1ccc(C(=O)OCC(=O)NCCC2=CCCCC2)cc1N	-12	-4	-0.7	8%	-0.2%	·	2.8
CCOC(=O)N1CCN(Cc2nc3cc(NC(=O)c4ccc(OC)cc4)ccc3n2C(C)C)CC1	10	·	1.4	·	1.4%	-2.0%	·
CO/N=C(/c1nonc1N)N1CCN(c2ccc([N+](=O)[O-])cc2)CC1	-5	-14	1.2	-11%	-2.8%	0.9%	-0.3
CC1=C(C#N)C(=O)N(C)C(C)(C)C1	-1	-6	-0.5	-14%	1.5%	0.1%	-16
Cc1cc(F)ccc1NC(=O)C(c1ccccc1)N1Cc2ccccc2C1=O (configuration not stated)	9	·	1.2	·	16%	4.9%	·
CC(NC(=S)NCc1ccc(F)cc1)C12CC3CC(CC(C3)C1)C2 (configuration not stated)	19	2	0.9	13%	?	·	-0.4
CCC1CCCCN1C(=O)CCC(=O)Nc1nnc(C(F)(F)F)s1 (configuration not stated)	8	5	-0.7	3%	2.0%	-3.2%	1.5
Cc1c(C)c(C)c(S(=O)(=O)n2[nH]c(=O)c(CCO)c2C)c(C)c1C	-3	1	-0.1	-7%	1.1%	·	-1.1
CC(C)[C@H](NC(=O)c1ccco1)C(=O)NC12CC3CC(CC(C3)C1)C2	-16	-14	2.2	15%	-1.2%	-3.4%	-3.4
COc1ccccc1-c1nnc(SC(C(=O)c2c[nH]c3ccccc23)c2ccccc2)n1C (configuration not stated)	-18	11	0.6	-3%	0.4%	2.4%	3.8
COC(=O)C1CCN(C(=O)COC(=O)[C@@H]2CC(O)CN2S(=O)(=O)c2ccc3c(c2)OCCO3)CC1 (some centres not stated)	7	1	0.4	6%	-0.8%	-1.2%	2.2
CN(CC(=O)Nc1cccc(F)c1)C(=O)c1ccc2c(=O)n3c(nc2c1)CCC3	1	5	-0.7	·	6.3%	-5.7%	·
Cc1ccc(S(=O)(=O)Nc2cccc(-c3cn4cccc(C)c4n3)c2)c(C)c1	29	·	1.6	·	5.0%	4.0%	·
CC(=O)N1CCc2c(sc3c2c(=O)n(Cc2ccccc2)c(=O)n3Cc2cc(C)ccc2C)C1	7	·	-1.0	·	0.6%	-4.6%	·
CC1=C(C)NC(=S)SC1	9	-1	-0.7	?	-0.7%	?	1.8
Cc1c(Cl)cccc1NC(=O)CCC(=O)NNC(=O)CCC(=O)O	-17	7	1.8	8%	-0.8%	0.4%	2.0
Clc1ccc(N=C2SCCS2)cc1	38	-13	-0.1	-2%	4.2%	-0.3%	3.3
O=C(Cc1ccc(F)cc1)Nc1nnc(SCC(=O)NC2CCCC2)s1	-3	11	0.3	26%	2.9%	-2.8%	-0.2
CC1/C(=N/O)CC(c2ccco2)NC1c1ccco1 (configuration not stated)	12	2	-0.3	-6%	2.8%	-0.7%	-0.9
C[C@@H]1CN([C@@H](C)CO)C(=O)CCCn2cc(nn2)CO[C@H]1CN(C)S(=O)(=O)c1ccc(C#N)cc1	-4	·	-0.3	·	0.6%	-2.6%	·
COc1ccc(-c2cnc3c(NC(C)=O)cc(-c4cccc(C(=O)NCCO)c4)cn23)cc1OC	-17	·	-0.3	·	0.3%	-2.9%	·
O=C(NCCC1=CCCCC1)C1CCC(CNc2c(N3CCCCC3)c(=O)c2=O)CC1 (configuration not stated)	-20	25	1.3	-4%	-1.3%	·	-2.3
CCn1c(SCC(=O)N2CCN(c3ccccc3)CC2)nnc1-c1cc2cc(Cl)ccc2o1	-3	1	1.1	10%	11µM*	?	1.7
CCCc1ccccc1OCCNC(C)=O	-3	-16	0.1	5%	-0.4%	-28%	0.2
COc1cc(C(=O)NC(C)c2ccc(S(N)(=O)=O)cc2)ccc1OCC(=O)N1CCOCC1 (configuration not stated)	-2	6	0.5	12%	-1.9%	-3.2%	·
COc1ccc(CCC(=O)NCCS(=O)(=O)N2CCN(c3ccccc3)CC2)cc1	3	20	-0.4	·	1.1%	-3.8%	·
